# miR-21 FLuc: miR-21 reporter, rising signal; HeLa miR-21 FLuc reporter, luciferase, 48 h; 340,000 tested, under 10 active; Potency, µM (top dose mostly 38.3 µM), inactives show at the highest dose reporter change, positive = more light; active = well fitted rising curve with a large enough effect; inconclusive = small, poorly fitted or top-dose-only effect; inactive = no such curve, though single readings can be large or run the other way;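 note: % of control where 0% means no effect; miR-21 action dims this reporter so a rising signal means less miR-21 action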
#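 HeLa miR-21-FLuc reporter line, endogenous miR-21; 2000 cells/well in DMEM/10% FBS; compound titration up to ~40uM final, 48 h, 37 degree Celsius; luciferase detection reagent, 15 min lysis, CCD luminescence.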
# Starred values were filed as active, the others as inactive; u = inconclusive. The list is partial, so the mix of outcomes need not match the whole.
SMILES,miR-21 FLuc
COc1ccc(CC(=O)N2CCc3cc(OC)c(OC)cc3C2COc2ccc(F)cc2)cc1OC (stereo not drawn),-7%
COc1ccc(-c2cc(C(F)(F)F)n3nc(C(=O)NCC45CC6CC(CC(C6)C4)C5)cc3n2)cc1OC,2%
CC(C)(C)c1ccc(S(=O)(=O)NCc2ccc3c(c2)CCN3C(=O)c2ccccc2)cc1,-5%
Cc1ccc(CSc2nc3ccccc3c3nc(CCn4c(C)nc5ccccc54)nn23)cc1,-3%
Cc1ccc(C)c(Cn2c(=O)n(Cc3ccco3)c(=O)c3oc4ccccc4c32)c1,0%
CCOc1ccc(CCNC(=O)CCCn2nc(C)c3sc4ccccc4c3c2=O)cc1,4%
Cc1cc(Br)ccc1NC(=O)C1CCN(S(=O)(=O)c2cccc3nsnc23)CC1,5%
COc1cc(Nc2nc(SCc3ccccc3Cl)nc3ccccc23)cc(OC)c1,13%
Cc1cccc(CNC(=O)C2CCN(c3nc4ccc(Cl)cc4[nH]3)CC2)c1,7%
O=C(NCC(c1cccnc1)N1CCN(c2ccccc2F)CC1)C(=O)Nc1ccc(F)cc1F (stereo not drawn),-8%
CCOC(=O)c1[nH]c2c(c1Cc1ccccc1)C(=O)CC(c1ccccc1)C2 (stereo not drawn),19%
COc1cccc(C(=O)Nc2nc3nc(C)c(Cc4ccccc4)c(=O)n3[nH]2)c1,-1%
COC(=O)c1c(NC(=O)CCCOc2ccccc2)sc2c1CCC(C)C2 (stereo not drawn),0%
CCn1cc2nc(SCc3cccc(C(F)(F)F)c3)n(CCc3ccccc3)c(=O)c2n1,30%
CCc1nn(CC(=O)N2CCN(c3cccc(C)c3)C(C)C2)c(=O)c2cc3sccc3n12 (stereo not drawn),-5%
COC(=O)c1cc(S(=O)(=O)N2CCN(c3cc(Cl)ccc3C)CC2)c[nH]1,27%
COC(=O)c1ccccc1NC(=O)c1cc(-c2ccc(Cl)cc2)on1,-4%
Cc1ccc(-n2c(=O)[nH]c3sc4c(c3c2=O)CCCC4)cc1,-6%
Cc1nnc(N2CCC(C(=O)NCc3ccc(N(C)C)cc3)CC2)c2nn(-c3ccccc3)c(C)c12,0%
Cc1ccccc1Cn1c(=O)n(CCc2ccccc2)c(=O)c2sc3ccccc3c21,-6%
CCOC(=O)c1ccc(NC(=O)C2CCCN(c3ncnc4onc(C)c34)C2)cc1 (stereo not drawn),14%
Cc1cccc(S(=O)(=O)c2cn(Cc3ccccc3)c3cc(N4CCCC(C)C4)c(F)cc3c2=O)c1 (stereo not drawn),-2%
COc1cccc(CNC(=O)c2sc3nc4n(c(=O)c3c2C)CCC4)c1,-5%
Cc1ccc(N(C)S(=O)(=O)c2ccc(-c3coc(C)n3)cc2)cc1,-3%

# Three of the compounds above, field by field.
COC(=O)c1ccccc1NC(=O)c1cc(-c2ccc(Cl)cc2)on1
- miR-21 FLuc: -4%
COc1cccc(CNC(=O)c2sc3nc4n(c(=O)c3c2C)CCC4)c1
- miR-21 FLuc: -5%
CCc1nn(CC(=O)N2CCN(c3cccc(C)c3)C(C)C2)c(=O)c2cc3sccc3n12 (stereo not drawn)
- miR-21 FLuc: -5%

# Sorted by formula weight (rising): some entries from above
SMILES,miR-21 FLuc
Cc1ccc(-n2c(=O)[nH]c3sc4c(c3c2=O)CCCC4)cc1,-6%
Cc1ccc(N(C)S(=O)(=O)c2ccc(-c3coc(C)n3)cc2)cc1,-3%
COC(=O)c1ccccc1NC(=O)c1cc(-c2ccc(Cl)cc2)on1,-4%
COc1cccc(CNC(=O)c2sc3nc4n(c(=O)c3c2C)CCC4)c1,-5%
COC(=O)c1cc(S(=O)(=O)N2CCN(c3cc(Cl)ccc3C)CC2)c[nH]1,27%
CCOC(=O)c1ccc(NC(=O)C2CCCN(c3ncnc4onc(C)c34)C2)cc1 (stereo not drawn),14%
Cc1ccccc1Cn1c(=O)n(CCc2ccccc2)c(=O)c2sc3ccccc3c21,-6%

# The list continues:
SMILES,miR-21 FLuc
Cc1ccc(/C=C/c2onc(C)c2S(=O)(=O)N2CCC(C(=O)N3CCN(c4cccc(C)c4)C(C)C3)CC2)cc1 (stereo not drawn),8%
Cc1cccc(Cn2c(=O)n(CC3CCC(C(=O)N4CCC(C)CC4)CC3)c(=O)c3sccc32)c1 (stereo not drawn),0%
Cc1cccc(C(=O)Nc2ccccc2OCc2cc(=O)n3cc(C)ccc3n2)c1,0%
CCOc1ccc(N(C(=O)c2ccc(C)cc2)S(=O)(=O)c2ccc3c(c2)n(C)c(=O)n3C)cc1,0%
COc1ccc(C2(CNC(=O)C(=O)Nc3ccc(F)cc3)CCCC2)cc1OC,-2%
COc1cc(C(=O)N2CCN(C(=O)COc3cccc(C)c3)CC2)cc(OC)c1OC,-4%
Cc1ccc2c(c1)c1c(c(=O)n(-c3ccccc3)c(=O)n1CC(=O)c1ccc(Cl)cc1)n2C,0%
Cc1c(CNCCCc2ccccc2)c(C(=O)O)c(C)n1Cc1ccc(Cl)cc1,3%
CC(C)CC(=O)Nc1ccc2nc(SCC(=O)N3CCc4ccccc43)sc2c1,u
O=C(CN1C(=O)c2ccccc2C1=O)Oc1ccc(F)cc1,-2%
Cc1ccc2c(c1)-c1ncc(C(=O)c3ccccc3O)cc1CO2,-7%
COC(=O)c1c(-c2cccs2)csc1NC(=O)c1ccc(C(C)C)cc1,-1%
CCCCC(CC)CNC(=O)CN1C(=O)CSc2ccc(S(=O)(=O)N3CCOCC3)cc21 (stereo not drawn),-2%
CCN(CC)CCn1c(=N)n(CC(O)COc2ccccc2C)c2ccccc21 (stereo not drawn),3%
COc1ccc(CCNC(=O)c2ccc3c(c2)c(C)c(C)n3Cc2ccc(F)cc2)c(OC)c1OC,0%
Cc1cc(O)c(C(c2cccc(F)c2)N2CCN(c3ccccc3)CC2)c(=O)n1Cc1ccco1 (stereo not drawn),0%
COc1ccc(N2CCN(C(=O)c3cn(C)c4ccc(S(=O)(=O)N(C)C5CCCCC5)cc4c3=O)CC2)cc1,0%
COc1ccc(-c2cc(C(=O)Oc3ccc(Cl)cc3)c3ccccc3n2)cc1,-14%
CCOc1ccc(NC(=O)C(=O)NCCc2csc(-c3ccc(F)cc3)n2)cc1,-1%
O=C(Nc1ccc(C(=O)N2CCN(c3cccc(Cl)c3)CC2)cc1)c1nsc2ccccc12,-23%
Cc1cccc(CSc2nc3cccnc3n2Cc2ccc(C(=O)NCc3cccs3)cc2)c1,3%
CCOc1ccc(-n2c(SCC(=O)Nc3ccc4c(c3)OCCO4)nc3c([nH]c4ccccc43)c2=O)cc1,-17%
COc1ccc(NC(=O)c2oc3ccccc3c2NC(=O)Cc2coc3c(C)c(C)ccc23)cc1,-43%
CC(=O)Nc1cccc(-c2nc(-c3ccccc3)no2)c1,-41%
O=C(COc1ccc(Cl)cc1Cl)Nc1ccc(C(=O)OC2CCCCC2)cc1,-8%
COCCNC(=O)C(=O)NCC(c1cccnc1)N1CCN(c2ccccc2)CC1 (stereo not drawn),-10%
O=C(COc1ccccc1F)Nc1ccc2nc(SCC(=O)N3CCOCC3)sc2c1,u
Cc1cc(C)c(NC(=O)CCC(=O)N2Cc3ccccc3Oc3ncccc32)c(C)c1,-4%
COC(=O)c1cc2oc3ccccc3c2n1Cc1nc(-c2ccc(Cl)cc2)oc1C,-3%
CC(C)OCCCNC(=O)c1ccc2c(=O)n(CCc3ccccc3)c(=O)[nH]c2c1,-6%
Cc1ccccc1CNC(=O)c1ccc2[nH]c(C)c(C)c2c1,-28%
COC(=O)c1ccccc1NC(=O)c1ccc(-c2nc(COc3ccccc3)c(C)o2)cc1,4%
CCc1ccccc1NC(=O)N1CCC2(CC1)Oc1ccccc1C(=O)N2Cc1ccccc1F,-2%
CCOc1ccccc1CNC(=O)c1cnc2sc(N(CC)CC)nn2c1=O,-4%
O=C(CCc1nc(CN2CCN(S(=O)(=O)c3ccc(Br)cc3)CC2)no1)N1CCCCC1,9%
O=C(NC1CCCC1)c1ccc2c(c1)N(Cc1ccccc1)C(=O)c1ccccc1S2,1%
Cc1c(C(=O)Nc2cccc(Cl)c2)oc2ccc(S(=O)(=O)N3CCCCCC3)cc12,8%
COc1ccc(-c2c(C)c3cc(OC(=O)N4CCOCC4)ccc3oc2=O)cc1OC,0%
COc1ccc(Cl)cc1NC(=O)c1sc2nc3c(cc2c1N)CN(C)CC3,2%
CCOc1ccc(NC(=O)c2cc3c(n(-c4ccc(OC)cc4)c2=O)CC(C)(C)CC3=O)cc1,0%
COc1ccc(NC(=O)c2c(NCc3ccc(OC)c(OC)c3OC)sc3c2CCC3)c(OC)c1,-3%
O=C(CCNS(=O)(=O)c1ccc2c(c1)CCCC(=O)N2)NCc1ccccc1Cl,0%
CCc1cc2c(-c3ccccc3)cc(=O)oc2c2c1OCN(Cc1ccc(C)cc1)C2,-12%
Cc1cc(C)c(NC(=O)Cn2c(=O)n(Cc3ccco3)c(=O)c3ccc(C(=O)NC4CCCC4)cc32)c(C)c1,-4%
Cn1c(=O)oc2cc(S(=O)(=O)N3CCCC(C(=O)NCc4ccc(F)cc4)C3)ccc21 (stereo not drawn),2%
Oc1ccccc1-c1nc(/C=C/c2ccccc2Cl)no1,-1%
O=C(NC1CC(=O)N(c2cccc(F)c2)C1)c1ccc(S(=O)(=O)N2CCOCC2)cc1 (stereo not drawn),-1%
O=S(=O)(NCc1ccc(Cl)cc1)c1ccc(-c2cnc(C3CC3)o2)cc1,0%
Cc1ccc(S(=O)Cc2nc(-c3ccc(C(=O)NCc4cccc(C)c4)cc3)oc2C)cc1 (stereo not drawn),-1%
COc1ccc(N2CCN(c3ncnc4c3nnn4C)CC2)cc1,12%
CC(C)(C)C1CCc2nc(NC(=O)c3ccc([N+](=O)[O-])cc3)sc2C1 (stereo not drawn),-1%
COc1cccc(-c2nnc(SCC(=O)N3CCCCC3)o2)c1,-54%
Cc1ccc(C)n1-c1nnc(N2CCC(C(=O)Nc3ccccc3Br)CC2)s1,-1%
COc1ccc(C2N=C(N)Nc3nc4ccccc4n32)cc1 (stereo not drawn),-5%
CCc1ccc(NC(=O)Nc2ccccc2OCc2cc(=O)n3ccccc3n2)cc1,-36%
Cn1ccc2cc(S(=O)(=O)N3CCCC(C(=O)NCc4ccc(F)cc4)C3)ccc21 (stereo not drawn),6%
COc1ccc(CCNC(=O)Cn2c(=O)nc(-c3ccccc3F)c3cc(Cl)ccc32)cc1OC,6%
Cc1cccc(-c2nc(CCNC(=O)Cc3ccccc3)cs2)c1,-6%
COc1ccccc1-c1noc(-c2ccc(NCc3ccco3)c([N+](=O)[O-])c2)n1,-7%
Cc1ccc(C)c(N2CCN(C(c3ccccc3)c3nnc(-c4ccccc4)o3)CC2)c1 (stereo not drawn),-1%

# Remaining list, next part
SMILES,miR-21 FLuc
Cn1cc(S(=O)(=O)N2CCCCCC2)cc1C(=O)Nc1ccccc1F,2%
CCc1ccccc1NC(=O)CN(c1ccccc1)S(=O)(=O)c1ccsc1C(=O)OC,-5%
Cc1ccc(CNC(=O)c2oc3ccc(S(=O)(=O)N4CCCC(C)C4)cc3c2C)cc1 (stereo not drawn),u
Cc1ccc2c(c1)N(C(=O)N1CCC(C(=O)NC3CCCCCC3)CC1)CC(C)O2 (stereo not drawn),-4%
CCC(Oc1ccc(F)cc1)C(=O)Nc1c(C(=O)c2ccc(C)cc2)oc2ccccc12 (stereo not drawn),-3%
CCc1ccccc1N1C(=O)N(C)c2ccccc2S1(=O)=O,10%
Cc1cc(NC(=O)Nc2nnc(N(C)Cc3ccccc3)s2)ccc1Br,23%
COc1ccccc1CNC(=O)C1CCCN(S(=O)(=O)c2ccc3c(c2)oc(=O)n3C)C1 (stereo not drawn),25%
CCN(CC)CCCNC(=O)c1cn(CC)c2ccc(S(=O)(=O)N3CCC(C)CC3)cc2c1=O,2%
Cc1cc(C)c(C#N)c(SCC(=O)Nc2ccccc2C#N)n1,-28%
CCOC(=O)CCCCN(Cc1ccccc1F)S(=O)(=O)c1ccc(F)c(C(=O)Nc2cc(Cl)cc(Cl)c2)c1,7%
Cc1ccc(-n2c(SCC(=O)NCc3ccccc3)nc3c([nH]c4ccccc43)c2=O)cc1,-6%
COCCCN1CCc2nc(SCC(=O)Nc3ccc(C)c(Cl)c3)[nH]c(=O)c2C1,-3%
Cc1ccc(-n2ncc(C(=O)N3CCN(C(=O)c4ccco4)CC3)c2C2CCN(C(=O)OC(C)(C)C)CC2)cc1,-3%
COC(=O)c1ccc(NC(=O)N2CCN(Cc3cc(=O)n4nc(-c5ccc(C)cc5)sc4n3)CC2)cc1,-2%
COc1cccc(OCc2nc3ccccc3n2CCOc2cccc(C)c2)c1,-41%
CCCOc1ccc(C(=O)N(Cc2ccccc2Cl)C2CCS(=O)(=O)C2)cc1 (stereo not drawn),3%
CCc1ccc(C(=O)CSc2nc(-c3ccccc3)nc3c2CCCC3)cc1,1%
CCOC(=O)c1c(C)[nH]c(C)c1S(=O)(=O)N1CCC(C(=O)N2CCN(c3cccc(C)c3C)CC2)CC1,u
COc1ccc(OC)c(NC(=O)c2nc(SCc3ccccc3F)ncc2Cl)c1,4%
Cc1ccccc1S(=O)Cc1ccc(C(=O)N2CCN(c3cccc(C)c3C)CC2)o1 (stereo not drawn),u
Cn1c(SCc2ccc(F)cc2)nc2ccc(C(=O)NCc3ccc(F)cc3)cc21,8%
O=C(CSc1nnc(-c2ccccc2F)o1)Nc1cccc(C(F)(F)F)c1,-37%
COc1ccc(C)cc1NC(=O)c1c2c(nc3ccccc13)C(=O)N(C1CCCCC1)C2,u
Cc1ccc(Cn2c(SCc3ccc(C(=O)O)cc3)nc3cccnc32)cc1,-16%
Cc1ccc(-c2nnc(Nc3ccc(Br)cc3)c3ccccc23)cc1S(=O)(=O)N1CCCCC1,-9%
